miR-21 reporter – qHTS Assay for Modulators of miRNAs and/orActivators of miR-21. 340,000 tested, under 10 active. Potency, µM (titrated, usually from 38.3 µM), for the others: at the highest dose reporter change, positive = more light. HeLa miR-21 FLuc reporter, luciferase, 48 h. AID 2288, 2010; active = well fitted rising curve with a large enough effect; inconclusive = small, poorly fitted or top-dose-only effect; inactive = no such curve, though single readings can be large or run the other way;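 further: % of control where 0% means no effect; miR-21 action dims this reporter so a rising signal means less miR-21 action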
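Using DMEM plus 10% FBS, HeLa miR-21-FLuc cells are incubated with test compounds (final up to about 40uM) for 48 hours; firefly luciferase signal is then imaged following reagent-mediated lysis.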
Rango complex inh – qHTS Assay for Inhibitors of Rango (Ran-regulated importin-beta cargo) - Importin beta complex formation | Rango CFP/YFP FRET sensor + importin beta, 45 min | Potency, µM (titrated, usually from 92.2 µM), for the others: at the top dose inhibition of complex formation | 340,000 compounds, 0.031% hits; active = rising FRET ratio curve, often small or poorly fitted; inconclusive = mostly compound fluorescence or quenching in the first reads; inactive = flat curves in all reads;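 further: potency means the concentration at half of the fitted maximal effect; 0% = DMSO wells and 100% = buffer wells lacking importin beta; nearly all actives have a fitted effect of over 15% in size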
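FRET biosensor Rango (snurportin 1 IBB between N-terminal EYFP and C-terminal Cerulean), 50 nM in PBS/1 mM DTT/0.02% Tween-20/0.1% BSA, preincubated 5 min RT with compound; 0.125 microM importin beta added, 45 min RT, CFP/YFP FRET ratio read.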
GLA inh pH 4.5 – qHTS Assay for Inhibitors of Human alpha-Galactosidase at pH 4.5; AID 1467, 2008; 230,000 tested, under 10 active; activity change, negative = inhibition, % at 105 µM; purified enzyme, 4-MU-alpha-Gal fluorescence, pH 4.5; Alpha-galactosidase A (Homo sapiens), P06280; inconclusive = small, poorly fitted or top-dose-only inhibition, or a rising curve; inactive = flat fitted curve, though single readings scatter; no compound was filed as active;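 further: 0% = full activity with enzyme and -100% = basal without enzyme; dose as in the result columns while the protocol names 77 µM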
Target sequence (P06280 whole entry, looked up): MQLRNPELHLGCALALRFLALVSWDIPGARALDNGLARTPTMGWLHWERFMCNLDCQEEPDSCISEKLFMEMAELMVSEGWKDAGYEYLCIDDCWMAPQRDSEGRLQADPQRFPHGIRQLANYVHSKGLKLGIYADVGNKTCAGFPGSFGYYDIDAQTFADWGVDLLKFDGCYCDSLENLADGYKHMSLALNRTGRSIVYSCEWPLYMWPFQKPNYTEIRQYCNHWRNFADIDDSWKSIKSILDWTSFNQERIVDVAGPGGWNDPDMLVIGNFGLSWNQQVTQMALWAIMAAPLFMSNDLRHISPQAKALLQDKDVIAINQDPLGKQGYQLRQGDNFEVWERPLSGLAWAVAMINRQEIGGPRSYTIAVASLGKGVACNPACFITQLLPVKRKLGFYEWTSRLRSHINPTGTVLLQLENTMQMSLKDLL
Rango release inh – qHTS Assay for Inhibitors of RanGTP induced Rango (Ran-regulated importin-beta cargo) - Importin beta complex dissociation; 340,000 compounds, 0.071% hits; Potency, µM (doses to about 46.1 µM), inactives show at the top dose activity change, negative = inhibition; AID 540253, 2011; Snurportin-1 (Homo sapiens) + GTP-binding nuclear protein Ran (Homo sapiens) + Importin …; Biochemical FRET Rango-importin beta, RanGTP-induced dissociation; active means falling FRET ratio curve, often poorly fitted, with flat reads before Ran was added; inconclusive means other falling curves, or compound fluorescence or quenching; inactive means flat or rising ratio curve;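 further: potency means the concentration at half of the fitted maximal effect; % of control where 0% means no effect; nearly all actives have a fitted effect of over 45% in size; -100% = wells without RanGTP and RCC1; the record marks most hits as doubtful in a second field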
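FRET read at 45 min, room temperature: inhibitors block the CFP/YFP signal rise when RanGTP (0.6 uM Ran, 2 mM GTP, 0.2 uM RCC1) frees Rango (0.1 uM) from importin beta (0.25 uM). Pre-read after 5 min compound exposure flags interference.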
Active calls of the source: *; [ ] = another dose, or the depositor's remark. The list is partial; rates above refer to the full screens.

Screening Cc1nn(-c2ccc(F)cc2)c(Cl)c1/C=C/C(=O)OCC(=O)Nc1c(F)c(F)c(F)c(F)c1F returned miR-21 reporter -7%, Rango complex inh -2.8%, GLA inh pH 4.5 7 and Rango release inh 1%.
COc1ccc(S(=O)(=O)N(C)C)cc1NC(=O)Cc1c[nH]c2ccccc12 was read as miR-21 reporter -8%, Rango complex inh -4.7%, GLA inh pH 4.5 -3 and Rango release inh -1%.
Screening N#CC(c1ccc(Cl)cc1)c1ccc(Cl)nn1 (stereo not drawn) returned miR-21 reporter 6%, Rango complex inh 3.4%, GLA inh pH 4.5 -3 and Rango release inh 2%.
`CCOC(=O)C1=C(C)N(C)C(C)=C(C(=O)OCC)C1c1cccnc1` gave miR-21 reporter 1%, Rango complex inh 1.3%, GLA inh pH 4.5 -9 and Rango release inh 1%.
Screening CCOc1ccc2nc(SCCNS(=O)(=O)c3ccccc3)sc2c1 returned miR-21 reporter -1%, Rango complex inh -3.7%, GLA inh pH 4.5 -9 and Rango release inh 0%.
Screening O=C(NNC(=S)Nc1ccc(Cl)c(Cl)c1)c1cccc([N+](=O)[O-])c1 returned miR-21 reporter -18%, Rango complex inh -1.0%, GLA inh pH 4.5 -1 and Rango release inh 13%.
`CCCSc1ccc([C@@H]2[C@H]3C(=O)N(CC)C(=O)[C@H]3[C@]3(C(=O)OC)CCCCN23)cc1` gave Rango complex inh inconclusive and Rango release inh -9%.
`COc1ccc(C2C=C(c3ccc(Br)cc3)Nc3nc(N4C(=O)CCC4=O)nn32)cc1` (stereo not drawn) gave miR-21 reporter 1%, Rango complex inh inconclusive, GLA inh pH 4.5 9 and Rango release inh inconclusive.
COCCNC(=O)C(C)N(c1ccc(Oc2ccccc2)cc1)S(C)(=O)=O (stereo not drawn) was read as miR-21 reporter -3%, Rango complex inh 2.6%, GLA inh pH 4.5 -2 and Rango release inh -9%.
Screening CC(C)CCNc1c(-c2cccs2)nc2ccccn12 returned miR-21 reporter -8%, Rango complex inh inconclusive, GLA inh pH 4.5 4 and Rango release inh inconclusive.
Screening CCN(c1ccc(NC(=O)COC(=O)CCC(=O)c2ccc(F)cc2)cc1)C(C)C returned miR-21 reporter 7%, Rango complex inh -2.1%, GLA inh pH 4.5 -2 and Rango release inh 1%.
COc1cccc(CNC(=O)CCC2CCCN(C/C=C/c3ccccc3OC)C2)c1 (stereo not drawn) was read as miR-21 reporter 2%, Rango complex inh 4.8%, GLA inh pH 4.5 -6 and Rango release inh 0%.
`Cc1ccccc1NC(=O)NNC(=O)OC(C)(C)C` gave miR-21 reporter 2%, Rango complex inh 0.3%, GLA inh pH 4.5 -3 and Rango release inh 0%.
`CCCCN1C(=O)Nc2ccccc2S1=O` (stereo not drawn) gave miR-21 reporter -9%, Rango complex inh -2.5%, GLA inh pH 4.5 -7 and Rango release inh 5%.
Oc1ccc(N2CCN(c3nc(-c4cccs4)nc4ccccc34)CC2)cc1 was read as miR-21 reporter 0%, Rango complex inh -2.4%, GLA inh pH 4.5 4 and Rango release inh 12%.
Cc1ccccc1C(=O)NC1CCN(CC(=O)Nc2ccc(Br)cc2)CC1 was read as miR-21 reporter 10%, Rango complex inh 6.5% and Rango release inh -5%.
For O=C(Oc1cc2oc(=O)c3c(c2cc1Cl)CCCC3)c1cccs1 the results were miR-21 reporter -9%, Rango complex inh inconclusive, GLA inh pH 4.5 inconclusive and Rango release inh 8.2µM*.
O=C(CCNS(=O)(=O)c1ccc2[nH]c(=O)oc2c1)Nc1ccccc1 was read as miR-21 reporter 0%, Rango complex inh 1.2% and Rango release inh -8%.
Screening CC(C)N(CCCNC(=O)Cn1c(=O)c2cccn2c2ccc(F)cc21)Cc1ccccc1 returned miR-21 reporter -4%, Rango complex inh 0.2% and Rango release inh 1%.
Screening Cc1cc(Cl)c(S(=O)(=O)Nc2ccccn2)cc1OCC(N)=O returned miR-21 reporter -2%, Rango complex inh 0.2%, GLA inh pH 4.5 3 and Rango release inh -13%.
`COC(=O)c1ccc(OS(=O)(=O)c2ccc(NC(C)=O)cc2)cc1` gave miR-21 reporter 2%, Rango complex inh 1.3%, GLA inh pH 4.5 2 and Rango release inh -16%.
CCOC(=O)N1CCC(NC(=O)CCC(=O)N2CCOc3ccc(Cl)cc32)CC1 was read as miR-21 reporter 0%, Rango complex inh -0.6%, GLA inh pH 4.5 2[21.1 µM] and Rango release inh -2%.
Screening O=C(Nc1cccc(O)c1)c1cc(-c2ccccc2Cl)on1 returned miR-21 reporter 29%, Rango complex inh -1.3% and Rango release inh -1%.
Screening CCOC(=O)N(NC(=O)C(O)(CC(C)C)CC(C)C)c1ccccc1 returned miR-21 reporter -6%, Rango complex inh -0.2%, GLA inh pH 4.5 -5 and Rango release inh 0%.
`CSCc1c(C(=O)OCC(=O)NC2CCCCC2)oc2ccccc12` gave Rango complex inh 2.4% and Rango release inh -4%.
Screening O=C(NCCCN1CCN(c2ccccc2F)CC1)C1CCC(=O)N1C1CCCC1 (stereo not drawn) returned miR-21 reporter -11%, Rango complex inh -2.3%, GLA inh pH 4.5 -3 and Rango release inh -9%.
For COc1ccc(CN(C)C(=O)c2ccc3c(=O)n4c(nc3c2)CCC4)cc1 the results were miR-21 reporter -11%, Rango complex inh 1.0% and Rango release inh 0%.
Nc1c(N(Cc2ccco2)C(=O)c2cccc(Cl)c2)c(=O)[nH]c(=O)n1Cc1ccccc1 was read as Rango complex inh -5.1% and Rango release inh -7%.
`Cc1noc(C)c1S(=O)(=O)N1CCC(C(=O)NC2CCN(Cc3ccccc3)CC2)CC1` gave miR-21 reporter 7%, Rango complex inh -1.7%, GLA inh pH 4.5 2 and Rango release inh 4%.
O=c1[nH]ncc(N2CCCC2)c1Cl was read as miR-21 reporter 2%, Rango complex inh -0.2%, GLA inh pH 4.5 -6[21.1 µM] and Rango release inh 14%.
For CC(C)c1cc(C(=O)N2CCCC(N3CCN(c4ccc(F)cc4)CC3)C2)n(C)n1 (stereo not drawn) the results were miR-21 reporter 14%, Rango complex inh -1.3% and Rango release inh -1%.
For COc1ccc(NC(=O)CCCn2cc([N+](=O)[O-])cn2)cc1 the results were miR-21 reporter -2%, Rango complex inh -0.1%, GLA inh pH 4.5 -24 and Rango release inh -1%.
Screening CCOC(=O)C1=C(C)NC(=O)C1CC(=O)O (stereo not drawn) returned miR-21 reporter -4%, Rango complex inh 4.0%, GLA inh pH 4.5 4 and Rango release inh 1%.
`CN(CC(O)COCc1ccc2c(c1)OCO2)C1CCCCC1` (stereo not drawn) gave miR-21 reporter 1%, Rango complex inh inconclusive, GLA inh pH 4.5 6 and Rango release inh 14%.
CC(c1ccccn1)N(CCN(C)C)C(=S)Nc1cccc(F)c1 (stereo not drawn) was read as miR-21 reporter 1%, Rango complex inh -0.8%, GLA inh pH 4.5 8 and Rango release inh 6%.
`O=C(c1ccc(Br)o1)N1CCC(Cc2ccccc2)CC1` gave miR-21 reporter -5%, Rango complex inh -5.0% and Rango release inh 26%.

Of the compounds above, these have an NH in an aromatic ring.
COc1ccc(S(=O)(=O)N(C)C)cc1NC(=O)Cc1c[nH]c2ccccc12 was read as miR-21 reporter -8%, Rango complex inh -4.7%, GLA inh pH 4.5 -3 and Rango release inh -1%.
O=C(CCNS(=O)(=O)c1ccc2[nH]c(=O)oc2c1)Nc1ccccc1 was read as miR-21 reporter 0%, Rango complex inh 1.2% and Rango release inh -8%.
Nc1c(N(Cc2ccco2)C(=O)c2cccc(Cl)c2)c(=O)[nH]c(=O)n1Cc1ccccc1 was read as Rango complex inh -5.1% and Rango release inh -7%.
O=c1[nH]ncc(N2CCCC2)c1Cl was read as miR-21 reporter 2%, Rango complex inh -0.2%, GLA inh pH 4.5 -6[21.1 µM] and Rango release inh 14%.

(list continues)
Screening COc1cc2c(cc1OC)CC1(CCCCC1)N=C2 returned miR-21 reporter -1%, Rango complex inh inconclusive, GLA inh pH 4.5 6 and Rango release inh -21%.
`O=C(C1CC1)N1CCc2sccc2C1c1ccc(Cl)cc1` (stereo not drawn) gave miR-21 reporter 2%, Rango complex inh 1.0%, GLA inh pH 4.5 0 and Rango release inh 25%.
`Cc1cc(Cl)c2oc(C(=O)N3CCCCC3CCN3CCCC3=O)c(C)c2c1` (stereo not drawn) gave miR-21 reporter 1%, Rango complex inh 2.0% and Rango release inh 4%.
For O=C(O)Cc1csc(Nc2cccc(Cl)c2)n1 the results were miR-21 reporter -42%, Rango complex inh 0.7%, GLA inh pH 4.5 7 and Rango release inh 6%.
`COCCNC(=O)c1cccc(OC2CCN(Cc3cccc(C(C)=O)c3)CC2)c1` gave miR-21 reporter 19%, Rango complex inh -1.7% and Rango release inh -4%.
CC1CN(C(=O)c2cccc(S(=O)(=O)N3CCOCC3)c2)CC(C)O1 (stereo not drawn) was read as miR-21 reporter -3%, Rango complex inh 0.4%, GLA inh pH 4.5 3 and Rango release inh -11%.
Screening COc1cccc(OCc2nnc(SC)n2C)c1 returned miR-21 reporter -30%, Rango complex inh -0.6%, GLA inh pH 4.5 11 and Rango release inh 14%.
`O=C(CN1CCCc2ccccc21)N/N=C/c1ccc(F)cc1F` gave miR-21 reporter -5%, Rango complex inh -0.4%, GLA inh pH 4.5 2 and Rango release inh -7%.
Cc1ccc(S(=O)(=O)N2CCN(c3ncnc4ccccc34)CC2)cc1 was read as Rango complex inh 0.5% and Rango release inh 0%.
Screening Cc1ccc(NC(=O)Cn2c(O)c(N=NS(=O)(=O)c3ccc(C)cc3)c3ccccc32)cc1 returned miR-21 reporter -4%, Rango complex inh 1.2%, GLA inh pH 4.5 -23 and Rango release inh 7%.
`CC(NC(=O)c1ccccc1OC(F)F)c1ccc(-n2ccnc2)cc1` (stereo not drawn) gave miR-21 reporter -8%, Rango complex inh 2.2% and Rango release inh -5%.
CCNC(=O)c1sc(=S)n(CC)c1N was read as miR-21 reporter -3%, Rango complex inh 4.0%, GLA inh pH 4.5 -5 and Rango release inh 0%.
Screening CCC(CO)Oc1cc(NC(=O)c2cccc(C)c2)c2ncn(C(C)C)c2c1 (stereo not drawn) returned Rango complex inh -2.9% and Rango release inh 3%.
`N#CCCCSc1nnnn1-c1cccc(Cl)c1` gave miR-21 reporter 0%, Rango complex inh 3.1%, GLA inh pH 4.5 -1 and Rango release inh 0%.
Screening Cc1ccc(CN2CCN(Cc3c[nH]c4ccccc34)CC2CCO)o1 (stereo not drawn) returned miR-21 reporter 0%, Rango complex inh 1.0%, GLA inh pH 4.5 -15 and Rango release inh -15%.
`C=C1CCN([C@H](C(=O)O)C(C)C)S(=O)(=O)c2ccccc21` gave Rango complex inh -0.2% and Rango release inh 2%.
CCOC(=O)C1CCN(S(=O)(=O)Cc2ccc(Cl)cc2)CC1 was read as miR-21 reporter -6%, Rango complex inh 1.7%, GLA inh pH 4.5 -1 and Rango release inh 4%.
`COc1ccccc1N1CCN(C(=O)c2cc3cc(C)ccc3[nH]2)CC1` gave miR-21 reporter -2%, Rango complex inh -2.5% and Rango release inh 0%.
Screening CCC1C(=O)N=C(SCC(=O)Nc2nc3ccccc3s2)NC1=O (stereo not drawn) returned miR-21 reporter 3%, Rango complex inh 4.0%, GLA inh pH 4.5 -1 and Rango release inh 1%.
`CCCc1cc(C(=O)Nc2nnc(C)s2)cs1` gave miR-21 reporter -40%, Rango complex inh -2.8%, GLA inh pH 4.5 4 and Rango release inh 16%.

Sorted by SMILES length (rising): some entries from above
CCOC(=O)C1CCN(S(=O)(=O)Cc2ccc(Cl)cc2)CC1 was read as miR-21 reporter -6%, Rango complex inh 1.7%, GLA inh pH 4.5 -1 and Rango release inh 4%.
`COc1ccccc1N1CCN(C(=O)c2cc3cc(C)ccc3[nH]2)CC1` gave miR-21 reporter -2%, Rango complex inh -2.5% and Rango release inh 0%.
Screening CCC(CO)Oc1cc(NC(=O)c2cccc(C)c2)c2ncn(C(C)C)c2c1 (stereo not drawn) returned Rango complex inh -2.9% and Rango release inh 3%.

High-throughput results from PubChem BioAssay.
